# Screening results as filed in PubChem.
# Env fusion inh: inhibitors of HIV-1 Env-driven cell-cell fusion, primary screen, HeLa-JRFL effector, CEM21 target cells, luciferase; inhibition, % at 12.3 µM; actives 1.1% (n = 360,000); AID 651610, 2012;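 active means mean replicate inhibition score of at least 50 and every replicate individually at or above 50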;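 further: 0% = plate neutral controls and 100% = maraviroc near 300 nM; one replicate is shown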
# Yeast UUG start: modulators of yeast start codon fidelity, primary screen, whole organism, S. cerevisiae, single point, plate reader. actives 0.13% (n = 350,000). S. cerevisiae UUG-firefly luciferase reporter, luminescence/redox ratio. AID 602363, 2012. activity score, % at 18.7 µM;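 active means replicate mean at a twofold rise or more, about +100% in these data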;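 further: firefly luciferase made from a UUG start codon reports start codon fidelity; reporter light over untreated wells divided by growth signal over untreated wells; some hits fall short of that in this replicate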
# Active calls of the source: *; [ ] = dose if it differs, or a comment. Not all compounds are listed, so the mix of outcomes need not match the whole.
Env fusion inh,Yeast UUG start,compound
7.5[16.7 µM],1.3,Cc1noc(C)c1NC(=O)N(C)C[C@@H]1OCCCC[C@H](C)Oc2ccc(NC(=O)c3ccncc3)cc2C(=O)N([C@H](C)CO)C[C@H]1C
-3.5[16.7 µM],27.9,N#C[C@H]1[C@@H](c2ccc(C#CCC3CCCC3)cc2)[C@@H](CO)N1C(=O)c1ccccn1
15.2[16.7 µM],8.5,C[C@@H]1CCCCO[C@H](CN(C)S(=O)(=O)c2ccc(Cl)cc2)[C@H](C)CN([C@@H](C)CO)C(=O)c2cc(NS(=O)(=O)c3cccs3)ccc2O1
-14.9[16.7 µM],-11.9,COc1ccc(NC(=O)Nc2ccc3c(c2)CC(=O)N([C@@H](C)CO)C[C@@H](C)[C@@H](CN(C)Cc2ccccc2)O3)cc1
15.7[16.7 µM],-9.1,O=C(C[C@@H]1C=C[C@H](NC(=O)c2ccccc2)[C@@H](CO)O1)NCCc1ccncc1
-1.1[16.7 µM],16.0,C[C@@H]1CN([C@@H](C)CO)C(=O)c2cc(NC(=O)Cc3ccccc3)ccc2O[C@@H]1CN(C)C(=O)Nc1ccccc1
10.3[16.7 µM],2.9,C[C@H](CO)N1C[C@H](C)[C@H](CN(C)C(=O)C2CCOCC2)Oc2ncc(/C=C/c3ccccc3)cc2C1=O
-6.8[16.7 µM],-12.9,C[C@@H]1CCCCO[C@@H](CN(C)C(=O)Nc2cccc3ccccc23)[C@H](C)CN([C@H](C)CO)C(=O)c2cc(NS(=O)(=O)c3ccccc3)ccc2O1
-7.3[16.7 µM],7.5,C[C@@H]1CN([C@H](C)CO)C(=O)Cc2cc(NC(=O)C3CCCCC3)ccc2O[C@@H]1CN(C)Cc1ccc2c(c1)OCO2
-6.2[16.7 µM],-12.2,C[C@@H]1CCCCO[C@@H](CN(C)S(C)(=O)=O)[C@H](C)CN([C@@H](C)CO)C(=O)c2cc(NC(=O)C3CCCCC3)ccc2O1
-2.4[16.7 µM],1.2,C[C@@H]1CN([C@H](C)CO)C(=O)c2cc(NC(=O)Nc3ccc4c(c3)OCO4)ccc2O[C@@H](C)CCCCO[C@H]1CN(C)Cc1ccc(C(=O)O)cc1
17.1[16.7 µM],-3.6,COc1ccccc1-c1ccc2c(c1)O[C@H](CN(C)CC1CCOCC1)[C@@H](C)CN([C@H](C)CO)S2(=O)=O
-17.6[16.7 µM],14.0,C[C@H]1CN([C@@H](C)CO)C(=O)Cc2cc(NC(=O)C3CCCCC3)ccc2O[C@H]1CN(C)C
-63.3[16.7 µM],-14.4,Cc1ccc(S(=O)(=O)Nc2ccc3c(c2)C(=O)N([C@@H](C)CO)C[C@H](C)[C@@H](CN(C)C(=O)Nc2ccccc2)OCCCC[C@H](C)O3)cc1
14.0[16.7 µM],5.6,CNC[C@@H]1Oc2cc(C#CCN(C)C)ccc2S(=O)(=O)N([C@@H](C)CO)C[C@@H]1C
-12.8[16.7 µM],1.7,O=C(C[C@H]1CC[C@@H](NC(=O)CN2CCOCC2)[C@@H](CO)O1)NC1CCCCC1

# Fetched by structure from the entries so far, four records:
Env fusion inh,Yeast UUG start,compound
-17.6[16.7 µM],14.0,C[C@H]1CN([C@@H](C)CO)C(=O)Cc2cc(NC(=O)C3CCCCC3)ccc2O[C@H]1CN(C)C
-7.3[16.7 µM],7.5,C[C@@H]1CN([C@H](C)CO)C(=O)Cc2cc(NC(=O)C3CCCCC3)ccc2O[C@@H]1CN(C)Cc1ccc2c(c1)OCO2
-12.8[16.7 µM],1.7,O=C(C[C@H]1CC[C@@H](NC(=O)CN2CCOCC2)[C@@H](CO)O1)NC1CCCCC1
17.1[16.7 µM],-3.6,COc1ccccc1-c1ccc2c(c1)O[C@H](CN(C)CC1CCOCC1)[C@@H](C)CN([C@H](C)CO)S2(=O)=O

# Later entries
Env fusion inh,Yeast UUG start,compound
-2.8[16.7 µM],-6.6,C[C@@H]1CN([C@@H](C)CO)S(=O)(=O)c2ccc(-c3cccc(C#N)c3)cc2O[C@H]1CN(C)C(=O)c1ccncc1
-2.1[16.7 µM],-3.6,C[C@@H]1CN([C@H](C)CO)S(=O)(=O)c2ccc(C#C[C@@H](C)O)cc2O[C@H]1CN(C)Cc1ccncc1
2.4[16.7 µM],-3.2,Cc1noc(C)c1NC(=O)Nc1ccc2c(c1)CC(=O)N([C@@H](C)CO)C[C@@H](C)[C@H](CN(C)Cc1ccc(C(=O)O)cc1)O2
-6.6[16.7 µM],-15.1,O=C(Nc1ccc(F)cc1)N[C@H]1CC[C@H](CC(=O)N2CCOCC2)O[C@H]1CO
-0.3[16.7 µM],12.4,C[C@H]1CN([C@@H](C)CO)C(=O)c2cc(C3=CCCC3)cnc2O[C@H]1CN(C)C(=O)CN(C)C
3.6[16.7 µM],2.4,Cc1ccc(S(=O)(=O)N(C)C[C@@H]2Oc3ccc(NS(=O)(=O)c4ccc(F)cc4)cc3CC(=O)N([C@@H](C)CO)C[C@@H]2C)cc1
16.0[16.7 µM],10.3,C[C@@H]1CN([C@H](C)CO)C(=O)c2cc(NC(=O)Nc3ccc4c(c3)OCO4)ccc2O[C@@H](C)CCCCO[C@@H]1CN(C)S(=O)(=O)c1cn(C)cn1
39.0[16.7 µM],27.7,COc1ccc(NC(=O)Nc2ccc3c(c2)C(=O)N([C@H](C)CO)C[C@@H](C)[C@H](CN(C)CC2CCCCC2)OCCCC[C@@H](C)O3)cc1
12.7[16.7 µM],-4.1,Cc1ccc(S(=O)(=O)N(C)C[C@@H]2OCCCC[C@@H](C)Oc3ccc(NC(=O)Nc4ccc5c(c4)OCO5)cc3C(=O)N([C@@H](C)CO)C[C@@H]2C)cc1
8.3[16.7 µM],-5.6,CCS(=O)(=O)NCC[C@H]1CC[C@@H](NS(=O)(=O)c2ccccc2C)[C@@H](CO)O1
-5.7[16.7 µM],-9.0,Cc1ccc(S(=O)(=O)Nc2cccc3c2O[C@@H](CN(C)S(=O)(=O)c2ccc(F)cc2)[C@@H](C)CN([C@@H](C)CO)C3=O)cc1
17.4[16.7 µM],-7.4,COc1ccc(S(=O)(=O)Nc2cccc3c2O[C@H](CN(C)Cc2ccc(C(=O)O)cc2)[C@H](C)CN([C@H](C)CO)C3=O)cc1
1.0[16.7 µM],-13.6,O=C(Nc1ccc(F)cc1)N[C@@H]1CC[C@H](CC(=O)N2CCOCC2)O[C@@H]1CO
20.0[16.7 µM],2.0,C[C@H]1CCCCO[C@H](CN(C)C(=O)CCC(F)(F)F)[C@@H](C)CN([C@@H](C)CO)C(=O)c2cc(NS(=O)(=O)c3ccccc3)ccc2O1
-16.7[16.7 µM],40.1,C[C@@H]1CCCCO[C@@H](CN(C)Cc2ccc3c(c2)OCO3)[C@@H](C)CN([C@H](C)CO)C(=O)c2cc(NS(=O)(=O)c3cccs3)ccc2O1
10.8[16.7 µM],7.4,C[C@H]1CN([C@@H](C)CO)C(=O)c2cc(-c3ccccc3F)cnc2O[C@H]1CN(C)C(=O)C1CCCCC1

# Complete entries, quoted from the list.
# `C[C@H]1CCCCO[C@H](CN(C)C(=O)CCC(F)(F)F)[C@@H](C)CN([C@@H](C)CO)C(=O)c2cc(NS(=O)(=O)c3ccccc3)ccc2O1` is listed with Env fusion inh: 20.0[16.7 µM]; Yeast UUG start: 2.0
# `O=C(Nc1ccc(F)cc1)N[C@H]1CC[C@H](CC(=O)N2CCOCC2)O[C@H]1CO` is listed with Env fusion inh: -6.6[16.7 µM]; Yeast UUG start: -15.1

# (continued)
Env fusion inh,Yeast UUG start,compound
31.7[16.7 µM],-7.5,CCc1csc(N2[C@@H](C#N)[C@H](c3ccc(-c4ccc(F)cc4)cc3)[C@@H]2CO)n1
16.3[16.7 µM],-14.4,C[C@H]1CCCCO[C@@H](CN(C)C(=O)Nc2ccc(C(F)(F)F)cc2)[C@@H](C)CN([C@@H](C)CO)C(=O)c2cc(NC(=O)Nc3cccc4ccccc34)ccc2O1
4.9[16.7 µM],5.1,C[C@@H]1CN([C@H](C)CO)S(=O)(=O)c2ccc(Br)cc2O[C@@H]1CN(C)C(=O)C1CC1
2.0[16.7 µM],14.4,COc1ccc(S(=O)(=O)Nc2ccc3c(c2)C(=O)N([C@H](C)CO)C[C@@H](C)[C@H](CN(C)C(=O)Nc2ccccc2)O3)cc1
6.8[16.7 µM],17.0,COc1ccc(S(=O)(=O)Nc2ccc3c(c2)C(=O)N([C@H](C)CO)C[C@@H](C)[C@@H](CN(C)Cc2ccc(C(=O)O)cc2)OCCCC[C@@H](C)O3)cc1
-48.9[16.7 µM],-7.1,Cc1ccc(S(=O)(=O)N(C)C[C@H]2OCCCC[C@@H](C)Oc3ccc(NS(=O)(=O)c4ccc(Cl)cc4)cc3C(=O)N([C@@H](C)CO)C[C@H]2C)cc1
12.1[16.7 µM],4.2,C[C@H]1CN([C@@H](C)CO)C(=O)c2cc(-c3ccccc3)cnc2O[C@@H]1CN(C)C(=O)c1cccc(F)c1
-32.3[16.7 µM],-2.8,CC(C)NC(=O)N(C)C[C@H]1Oc2cc(C#CC(C)(C)O)ccc2S(=O)(=O)N([C@H](C)CO)C[C@@H]1C
-11.6[16.7 µM],4.4,COc1ccc(S(=O)(=O)N[C@H]2CC[C@@H](CC(=O)NCCc3ccccc3)O[C@H]2CO)cc1
30.2[16.7 µM],-12.3,COCCNC(=O)C[C@@H]1C[C@@H]2c3cc(NC(=O)C4CCOCC4)ccc3O[C@@H]2[C@H](CO)O1
13.5[16.7 µM],10.5,COc1ccc(S(=O)(=O)N[C@H]2C=C[C@H](CC(=O)N3CCc4ccccc4C3)O[C@@H]2CO)cc1
-16.0[16.7 µM],6.6,C[C@H]1CN([C@@H](C)CO)C(=O)c2cc(NC(=O)Nc3cccc4ccccc34)ccc2O[C@H]1CN(C)Cc1ccccc1
4.1[16.7 µM],-6.3,C[C@@H]1CCCCO[C@@H](CN(C)C)[C@H](C)CN([C@@H](C)CO)C(=O)c2cc(NC(=O)c3ccncc3)ccc2O1
18.5[16.7 µM],5.5,C[C@H](CO)N1C[C@H](C)[C@@H](CN(C)C(=O)c2ccccn2)Oc2cc(C#CCC3CCCC3)ccc2S1(=O)=O
-7.6[16.7 µM],-2.0,C[C@@H]1CN([C@H](C)CO)C(=O)c2cc(NS(C)(=O)=O)ccc2O[C@@H](C)CCCCO[C@H]1CN(C)C(=O)NC1CCCCC1
-45.5[16.7 µM],4.9,C[C@@H]1CCCCO[C@H](CN(C)C(=O)NC2CCCCC2)[C@H](C)CN([C@H](C)CO)C(=O)c2cc(NS(=O)(=O)c3ccc(Cl)cc3)ccc2O1
16.5[16.7 µM],16.9,COc1ccc(NC(=O)Nc2ccc3c(c2)C(=O)N([C@@H](C)CO)C[C@H](C)[C@@H](CN(C)CC2CCCCC2)OCCCC[C@H](C)O3)cc1
-48.8[16.7 µM],8.6,CC(C)NC(=O)N(C)C[C@@H]1Oc2cc(C#CCN(C)C)ccc2S(=O)(=O)N([C@H](C)CO)C[C@@H]1C
-3.4[16.7 µM],1.9,C[C@@H]1CN([C@@H](C)CO)C(=O)c2cc(C#CCc3ccccc3)cnc2O[C@H]1CN(C)C(=O)C1CCCCC1
38.4[16.7 µM],-24.2,CCNC(=O)C[C@@H]1CC[C@@H]2[C@H](COc3ccc(NC(=O)Cc4cccs4)cc3C(=O)N2C)O1
5.2[16.7 µM],7.4,COC(=O)C[C@@H]1CC[C@H]2[C@H](COc3ccc(NS(=O)(=O)c4ccc(C)cc4)cc3C(=O)N2C)O1
-12.4[16.7 µM],-17.9,O=C(C[C@H]1C[C@H]2c3cc(NC(=O)c4cccnc4)ccc3O[C@H]2[C@H](CO)O1)NCc1cccc(F)c1
15.3[16.7 µM],9.0,C/C=C/c1ccc2c(c1)O[C@H](CN(C)C(=O)c1ccc3c(c1)OCO3)[C@H](C)CN([C@@H](C)CO)S2(=O)=O
9.1[16.7 µM],9.5,CCS(=O)(=O)Nc1ccc2c(c1)C(=O)N(C)[C@@H]1CC[C@H](CC(=O)Nc3ccccc3)O[C@@H]1CO2
-9.3[16.7 µM],4.1,Cc1ccc(S(=O)(=O)N(C)C[C@H]2OCCCC[C@H](C)Oc3ccc(NS(=O)(=O)c4ccccc4)cc3C(=O)N([C@H](C)CO)C[C@H]2C)cc1
2.7,-6.0,CCOc1cc(C(=O)Nc2cc(OC)cc(OC)c2)ccc1OCC(=O)N1CCOCC1
-5.7[16.7 µM],7.6,C[C@H](CO)N1C[C@H](C)[C@H](CN(C)C)OCCCC[C@H](C)Oc2ccc(NC(=O)Nc3ccc(C(F)(F)F)cc3)cc2C1=O
-9.8[16.7 µM],-7.4,C[C@@H]1CN([C@@H](C)CO)C(=O)Cc2cc(NS(=O)(=O)c3cccs3)ccc2O[C@H]1CN(C)Cc1ccccc1
-34.1[16.7 µM],-6.2,C[C@@H]1CN([C@@H](C)CO)C(=O)c2cccc(NC(=O)c3nc4ccccc4s3)c2O[C@@H]1CN(C)S(=O)(=O)c1ccccc1
3.1[16.7 µM],-2.8,C[C@@H]1CN([C@@H](C)CO)C(=O)c2cc(-c3ccncc3)cnc2O[C@@H]1CN(C)C(=O)c1ccccc1F
-51.1[16.7 µM],10.5,CC(C)NC(=O)N(C)C[C@H]1OCCCC[C@@H](C)Oc2ccc(NS(=O)(=O)c3ccc(Cl)cc3)cc2C(=O)N([C@H](C)CO)C[C@@H]1C
-6.5[16.7 µM],3.9,COCCCNC(=O)[C@@]1(CCS(=O)(=O)c2ccccc2)N=C(c2ccc(OCCCO)cc2)O[C@H]1c1ccccc1
0.0[16.7 µM],15.0,C[C@@H]1CN([C@H](C)CO)C(=O)c2cccc(NS(C)(=O)=O)c2O[C@H]1CN(C)S(=O)(=O)c1ccccc1
